From PubChem
D2 agonist: Beta-Arrestin HTS for Positive Allosteric Modulators of the Human D2 Dopamine Receptor: Agonists | DiscoveRx PathHunter D2 beta-arrestin, luminescence, 90 min; 100% = 57 uM dopamine signal | activation, % (test concentration not listed) | actives 0.084% (n = 360,000); in the data active = activation above about 40%; inconclusive = about 15% to 40%; inactive = below about 15%; also: compound concentration not given in the record; the text of the record calls up to 30% inactive
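DiscoveRx PathHunter D2 beta-arrestin cells (2,100/well) attached overnight, then compound-stimulated 90 min at 37 C in HBSS/10 mM HEPES/0.1% Tween-20 buffer; beta-galactosidase complementation read by luminescence after 1 h at ambient temperature. Dopamine 57 uM final (EC100) as control.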
PINK1 modulator: A Quantitative High throughput Screen to Identify Chemical Modulators of PINK1 Expression; PINK1 immunofluorescence, high-content cytometry, 24 h; actives 0.2% (n = 410,000); Potency, µM (highest dose often 76.6 µM), inactives show top-dose activation (PINK1 increase), hits mostly activators; active = well fitted activation curve with a large enough effect; inconclusive = small, poorly fitted or top-dose-only effect; inactive = flat fitted curve, though single readings scatter; cell line not stated here;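 also: potency is read from the fitted curve at half-maximal effect; % of control where 0% means no effect; nearly all actives have a fitted effect of over 65% in size; a mitochondrial uncoupler was the plate control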
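Cells are seeded, rested 12 hours, then given compound at five concentrations or DMSO for 24 hours. After fixation, blocking and antibody staining, PINK1 amount and mitochondrial localization are scored; CCCP serves as control.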
D2 PAM: Beta-Arrestin HTS for Positive Allosteric Modulators of the Human D2 Dopamine Receptor: Potentiators | D(2) dopamine receptor (Homo sapiens), P14416 | DiscoveRx D2 beta-arrestin cells, luminescence, 90 min; 100% = 57 uM dopamine signal | potentiation, % (concentration not given with the values) | actives 0.23% (n = 360,000) | AID 624464, 2012; active = potentiation of 50% or more; inconclusive = 30% to 50%; inactive = 30% or less;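 also: compound concentration not given in the record; tested on top of an EC20 dose of dopamine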
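D2 cells co-treated with compound plus 50 nM dopamine (EC20) for 90 min at 37 deg C to detect potentiation. Beta-arrestin recruitment was read as enzyme-fragment luminescence after 1 h at ambient temperature. Full response was set by 57 uM dopamine.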
CtBP-E1A inh: qHTS Assay for Inhibitors of the CtBP/E1A Interaction; CtBP / adenovirus E1A interaction (AlphaScreen); AlphaScreen GST-E1A/His-CtBP binding, 1536-well; hits give low values; control for the full effect not named in the record; activity change, % (test concentration not listed); actives 0.49% (n = 340,000); in the data active means activity change below about -65%; inconclusive means about -30% to -65%; inactive means above about -30%; also: % is scaled to controls: 0 for no effect and ±100 for the full control effect; compound concentration not given in the record
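Homogeneous bead-based format: GST-tagged E1A captured on glutathione donor beads, His-tagged CtBP on nickel acceptor beads; compounds precede bead addition by 2 h at 37 °C.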
Six1-Eya2 inh: qHTS Assay for Inhibitors of the Six1/Eya2 Interaction. Homeobox protein SIX1 (Homo sapiens) + Protein phosphatase EYA2 (Homo sapiens), …. AlphaScreen GST-Six1/His-Eya2 binding, biochemical; hits give low values; control for the full effect not named in the record. activity change, % (concentration not given with the values). actives 0.56% (n = 360,000). AID 651725, 2012; in the data active = activity change below about -65%; inconclusive = about -30% to -65%; inactive = above about -30%; also: % is scaled to controls: 0 for no effect and ±100 for the full control effect
Target sequence (O00167 whole entry, looked up): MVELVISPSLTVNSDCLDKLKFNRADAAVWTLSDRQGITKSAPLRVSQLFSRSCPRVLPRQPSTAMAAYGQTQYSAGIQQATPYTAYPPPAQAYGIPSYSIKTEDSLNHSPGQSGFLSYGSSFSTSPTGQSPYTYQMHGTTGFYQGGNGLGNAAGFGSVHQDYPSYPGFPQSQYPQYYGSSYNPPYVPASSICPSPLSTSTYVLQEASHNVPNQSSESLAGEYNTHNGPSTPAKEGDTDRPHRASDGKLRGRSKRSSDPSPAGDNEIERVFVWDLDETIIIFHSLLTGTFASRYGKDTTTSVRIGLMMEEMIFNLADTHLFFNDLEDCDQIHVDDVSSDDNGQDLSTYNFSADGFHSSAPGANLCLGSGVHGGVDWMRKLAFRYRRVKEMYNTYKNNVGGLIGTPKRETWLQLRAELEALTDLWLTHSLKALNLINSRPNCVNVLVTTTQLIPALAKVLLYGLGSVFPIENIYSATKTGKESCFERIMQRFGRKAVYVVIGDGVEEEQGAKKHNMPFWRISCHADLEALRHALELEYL
Target sequence (Q15475 whole entry, looked up): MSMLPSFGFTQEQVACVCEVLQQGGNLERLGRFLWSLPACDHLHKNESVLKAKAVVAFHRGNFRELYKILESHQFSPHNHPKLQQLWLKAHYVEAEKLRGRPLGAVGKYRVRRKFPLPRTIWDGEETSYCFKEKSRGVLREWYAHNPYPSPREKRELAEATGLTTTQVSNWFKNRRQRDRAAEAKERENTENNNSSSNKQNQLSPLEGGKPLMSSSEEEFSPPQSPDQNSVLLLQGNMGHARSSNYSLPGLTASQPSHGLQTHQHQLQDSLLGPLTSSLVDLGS
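Homogeneous AlphaScreen proximity assay pairing GST-Six1 with His-tagged Eya2 (added as 5X mix: 250 nM and 500 nM) in 50 mM Tris pH 8.0, 300 mM NaCl, 1 mM TCEP. Glutathione donor and nickel acceptor beads; 1 h, 37 °C, dark.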
TRPML1 agonist: qHTS for Agonists of the Human Mucolipin Transient Receptor Potential 1 (TRPML1) | TRPML1-expressing cells, Ca2+ dye fluorescence, FDSS; host cell line not named in the record; reference of the full effect not given here | activation, % (test concentration not listed) | actives 0.12% (n = 410,000) | AID 624414, 2012; in the data active = activation above about 50%; inconclusive = about 30% to 50%; inactive = below about 30%; also: 0% is about no effect; the text of the record puts the active cut at 80%
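Agonist activity was taken from a 110 s kinetic Ca2+ dye read on the FDSS after pinning compounds onto TRPML1-DL cells. The cells were seeded at 1,500/well with Tet inducer, incubated about 16 h, then dye-loaded at room temperature.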
Active calls of the source: *; ? = inconclusive; . = no result given; & = joins results of further samples; [ ] = remark or other dose.

SMILES	D2 agonist	PINK1 modulator	D2 PAM	CtBP-E1A inh	Six1-Eya2 inh	TRPML1 agonist
CCOC(=O)CC(=O)c1sc2c(c1N)c(=O)[nH]c(=O)n2-c1ccc(OC)cc1	-1.5	1.5%	-0.7	.	0.6	0.9
CCc1nc2sc(C(=O)O)c(N)c2c2c1CCCC2	-1.3	-1.0%	1.3	37.2	11.4	0.4
O=[N+]([O-])c1c(C(Cl)Cl)nn(-c2ccccc2)c1N1CCCC1	1.0	.	23.4	-8.5	?	-0.2
CSC(=S)N/N=C/c1ccc(Br)cc1	2.9	-0.4%	-1.7	10.8	1.0	0.4
COc1ccc(CCNC(=O)c2cccc(-n3cnnn3)c2)cc1	0.7	2.0%	-2.3	-1.6	-1.0	0.9
COc1ccc(OC)c(N/C=C/C(=O)c2ccccc2)c1	-0.4	2.2%	-1.4	-9.8	-9.1	2.2
COC(=O)C(CCCCNC(=O)c1ccc([N+](=O)[O-])cc1)NC(=O)c1ccc([N+](=O)[O-])cc1 (stereo unspecified)	-3.8	1.9%	6.4	-4.8	8.1	0.4
O=C(c1nc2ccccc2s1)N1CCN(c2ccccn2)CC1	-1.7	-0.4%	-1.4	0.0	21.0	-0.2
O=C(COc1ccccc1Cl)NC(=O)NC1CCCCC1	-3.8	8.2%	-7.6	6.0	-1.7	-0.8
CCn1c(SCc2ccc(F)cc2)nc2c(c1=O)SCC2	2.2	1.4%	-2.1	-15.2	-25.1	3.1
CC(C)(C)C1CCC(=NNC(=O)C(=O)NC2CCCCC2)CC1 (stereo unspecified)	-3.9	9.5%	-18.1	26.5	-11.2	-0.1
C=CCn1cc(C(=O)NCCOC)c(=O)c2cc(S(=O)(=O)N(CC)CC)ccc21	1.0	2.6%	-4.5	-2.6	2.1	0.1
COC(=O)COc1cc(OCC(=O)OC)c2c(C)c(Cl)c(=O)oc2c1	-1.2	2.1%	-12.0	7.6	3.6	-0.1
COC(=O)[C@]12CCCCC=C1N(Cc1cccc3ccccc13)C(=O)[C@H](CC(=O)NCCC(C)C)C2	.	9.9%	.	-1.8	-5.1	-0.4
c1ccc(-c2nnc(SCc3nc4ccccc4[nH]3)n2Cc2ccco2)nc1	-1.5	-5.1%[38.3 µM]	-13.6	?	?	0.5
COC(=O)Nc1cc(C)n(-c2ccccc2)n1	-5.1	-0.4%	-3.5	3.7	-9.6	-0.8
Cc1oc2c(c1C(=O)NCc1cc(C(=O)O)co1)CCCC2	-0.6	-2.5%	-8.3	-0.8	-3.3	0.8
Cc1ccccc1N(C(=O)CCC(=O)Nc1ccccn1)C(C(=O)NC(C)C)c1ccc(F)cc1 (stereo unspecified)	-1.4	1.6%	-0.8	0.8	5.1	-0.4
COc1cccc(CC(=O)OCC(=O)N(C)CC(=O)Nc2ccc(F)cc2)c1	-1.5	1.9%	-3.3	0.0	9.7	0.1
O=C(c1ccc(Cl)s1)N1CCOCC1	2.3	?	-6.0	-19.2	6.1	0.7
CCOC(=O)C1=C[C@@H](C(C)(C)C)N(S(=O)(=O)c2ccc(C)cc2)[C@H]1c1ccccc1	-4.1	1.9%	-4.9	8.2	4.1	0.3
COc1cccc(-c2nn(C)c3sc(C(=O)N4CCOCC4)cc23)c1	-5.7	4.6%	-1.9	-1.4	0.5	-0.7
Cn1c(C(=O)O)c(CC(=O)N2CCC(Cc3ccccc3)CC2)c2ccccc21	0.4	-0.8%	16.9	-7.7	-4.1	1.3
O=C(c1cc2ccccc2oc1=O)N(Cc1ccco1)C1CCS(=O)(=O)C1 (stereo unspecified)	-2.2	1.2%	-0.1	-0.2	-5.5	-0.5
O=C1CC(c2ccco2)CC(O)=C1C=Nc1cc(Cl)cc(Cl)c1 (stereo unspecified)	1.6	0.8%	-21.0	-3.2	-0.3	2.1
COc1ccc(Cc2[nH]n3c(=O)cc(C)nc3c2-c2ccccc2)cc1	-2.1	10.8%	-2.6	4.5	8.5	1.3
O=C(CCl)Nc1cccc(Oc2cnccn2)c1	-3.8	12.3%	-13.5	-8.7	4.3	0.1
O=C(NC1CCCCC1)C(c1ccccc1)N(C(=O)Cc1ccsc1)c1ccccc1 (stereo unspecified)	1.6	-1.2%[38.3 µM]	-17.9	4.4	5.1	0.8
N#C/C(=C(/O)C(Cl)(Cl)Cl)c1nc2ccccc2[nH]1	3.7	3.8%	-12.1	.	-2.2	0.0
COc1ccc(NC(=O)Nc2nc(C)cc(C)n2)c(OC)c1	-4.1	0.1%	-22.1	.	-4.1	-0.1
NS(=O)(=O)c1cccc(NC(=O)COC(=O)/C=C/c2ccco2)c1	-2.7	-0.5%	-7.7	3.4	-3.2	0.9
Cc1ccc(C)c(S(=O)(=O)Nc2ccc(S(=O)(=O)Nc3ncccn3)cc2)c1	-1.6	5.8%	-3.9	.	4.5	-0.7
COc1ccc(CCNC(=O)COC(=O)/C=C/c2cc(OC)ccc2OC)cc1	2.9	1.3%	-5.4	-2.0	3.1	3.9
COc1ccc(-c2cc(CCCC(=O)NCc3ccccn3)no2)cc1	-3.5	-1.4%	-7.5	-10.2	-2.7	0.6
CC(C)c1ccc(NC2CCCN(C(=O)CSc3nncn3C)C2)cc1 (stereo unspecified)	-1.9	0.7%	-3.5	.	-5.0	1.1
CCOC(=O)C1CCCN(Cc2cc(=O)oc3cc(C)c(C)cc23)C1 (stereo unspecified)	-1.9	1.7%	-9.8	-19.0	-5.7	0.0
COc1cc(C(=O)Nc2nnc(C3CC3)s2)ccc1OCc1c(C)noc1C	-1.4	8.7%	-1.9	29.4	7.5	-1.2
COc1cccc(NC(=O)CN(c2ccc3c(c2)OCO3)S(C)(=O)=O)c1	-4.3	-0.3%	-14.2	-3.6	0.5	-0.7
CC1CCC(NS(=O)(=O)c2ccc(Cl)s2)CC1 (stereo unspecified)	6.5	2.9%	3.9	13.5	1.0	0.7
CCC(C)(C)C1CCC2(CC1)NC(=O)N(CC(=O)N(C)CC(=O)Nc1ccccc1C(F)(F)F)C2=O (stereo unspecified)	-5.0	1.3%	-9.0	10.8	9.0	-0.3
CCS(=O)(=O)c1ccc(C(=O)NC2CC2)c(Cl)c1Cl	-3.8	1.5%	-8.2	-2.5	9.3	-0.6
COCCNC(=O)c1c(N)n(/N=C/c2ccc(F)cc2)c2nc3ccccc3nc12	-1.2	4.1%	-1.7	.	15.2	1.0
CCC(C(=O)NCCN1CCOCC1)n1c2ccccc2c2nc(=O)cc(C)n21 (stereo unspecified)	-3.0	-0.3%	-11.2	1.3	4.2	0.1
Cn1c(-c2ccccc2)c[n+]2c1-c1ccccc1C2	-1.9	0.6%	-3.2	.	-2.3	0.6
COc1ccc(C)cc1N/C(N)=N/c1nc(C)cc(C)n1	-3.6	-1.0%	-16.6	-1.0	-2.5	-0.1
CC1(C)OC(=O)C(=CNCC(O)c2ccccc2)C(=O)O1 (stereo unspecified)	1.9	.	-12.6	3.0	5.5	0.6
COc1ccc(COn2nnc3ccc(S(=O)(=O)N4CCOCC4)cc32)cc1F	-3.7	-3.1%	-15.2	3.6	11.2	1.5
O=C(/C=C/c1ccc(Br)cc1)c1ccc(NC(=O)c2ccco2)cc1	-3.8	21.8%&3.3%	8.8	-0.7	0.8&2.0	1.3&-0.3
COc1ccc(NC(=O)c2sc(NC(=O)C3CC3)nc2C)cc1	-1.3	7.0%	-1.8	-2.2	-2.4	0.2
COc1ccc(CNC(=O)c2cccc(N(C)C)c2)cc1	-0.1	0.5%	-13.3	-2.3	-2.3	0.8
Cc1cc(C)n2nc(C(=O)OCC(=O)N(CC(C)C)CC(C)C)nc2n1	-5.2	2.7%	-2.9	-1.2	4.1	-1.7
O=C(Nc1nnc(C2CC2)o1)c1ccc(S(=O)(=O)N2CCCCC2)cc1	4.2	2.3%	4.1	-16.8	-18.3	1.7
CCCCCCCCNS(=O)(=O)CCNCCCC	-2.8	12.8%	-16.2	8.3	11.5	-0.4
Clc1ccc(/C=N/N2CCN(Cc3ccccc3Cl)CC2)cc1	-0.1	22.5%	-5.7	-25.3	?	-1.2
COc1cc(C(=O)Nc2ccc(S(=O)(=O)Nc3ncccn3)cc2)c([N+](=O)[O-])cc1OC	1.3	-3.7%	-5.8	-0.5	-0.4	1.0
O=C(O)c1cccc(S(=O)(=O)N2CCSCC2)c1	-3.1	0.2%	-6.5	6.3	4.2	0.1
COc1cccc(-n2cc(CN(C)C(=O)C3CCC(=O)N(C4CC4)C3)cn2)c1 (stereo unspecified)	-3.3	2.2%	-6.9	-4.0	0.1	-0.1
CC/C(=N/N=C(/CC)c1ccc(O)cc1)c1ccc(O)cc1	-3.7	2.5%	-14.5	.	-0.4	-0.4
Cc1csc(NC(=O)CCCSc2nc3ccccc3s2)n1	-0.8	3.5%[38.3 µM]	-5.4	-9.4	-6.1	1.1
O=S(=O)(O)c1ccc(N=Nc2ccccc2)cc1	-8.1	0.0%	-16.8	0.0	-11.6	0.4

(cont.)
SMILES	D2 agonist	PINK1 modulator	D2 PAM	CtBP-E1A inh	Six1-Eya2 inh	TRPML1 agonist
Cc1ccc2sc(N3CCN(C(=O)c4ccc([N+](=O)[O-])o4)CC3)nc2c1C	-4.5	0.2%	9.9	2.4	10.5	-0.3
CCS(=O)(=O)c1nc(S(=O)(=O)c2ccc(C)cc2)c(N2CCN(C)CC2)s1	-2.6	-1.0%	-20.2	.	5.8	1.0
O=C(NCC1COc2ccccc2O1)c1ccccc1 (stereo unspecified)	-3.1	-3.7%[38.3 µM]	5.3	-5.7	-2.0	0.9
O=C(O)c1ccc(Cl)c(NCc2cccnc2)c1	-3.5	2.0%	-2.8	6.3	4.3	-0.3
CC(NC(=O)C1CSC2(C)CCC(=O)N12)c1ccccc1Cl (stereo unspecified)	-3.5	0.4%	-5.3	4.5	-7.8	0.6
C[C@H](CO)N1C[C@H](C)[C@@H](CN(C)C(=O)Nc2ccc3c(c2)OCO3)Oc2ccc(NS(=O)(=O)c3ccccc3)cc2C1=O	-2.3	-0.2%	-16.8	-21.6	8.6	1.3
Cc1nn2c(C)nc3sc4c(c3c2nc1=O)CC(C)(C)OC4	-3.1	1.7%[38.3 µM]	1.1	-5.1	-4.9	0.7
CCOC(=O)c1ccc(-n2c(C)nc3c(cnn3-c3ccccc3C)c2=O)cc1	-4.4	-0.5%	-4.1	1.1	4.2	-0.6
CCN(C(=O)COC(=O)c1ccc(N2C(=O)c3ccccc3C2=O)cc1)C1CCS(=O)(=O)C1 (stereo unspecified)	3.3	6.4%	-14.9	5.7	2.7	0.7
